# miR-21 FLuc: miR-21 reporter, rising signal; HeLa miR-21 FLuc reporter, luciferase, 48 h; Potency, µM (top dose mostly 38.3 µM), inactives show top-dose reporter change, positive = more light; 340,000 tested, under 10 active; AID 2288; active = well fitted rising curve with a large enough effect; inconclusive = small, poorly fitted or top-dose-only effect; inactive = no such curve, though single readings can be large or run the other way;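 note: % of control where 0% means no effect; miR-21 action dims this reporter so a rising signal means less miR-21 action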
#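 HeLa cells endogenously expressing miR-21, stably carrying CMV-driven firefly luciferase with a downstream miR-21 binding site, 2000 cells/well. Titrations up to approximately 40 uM, 48 hours; luciferase luminescence read.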
# Starred values were filed as active, the others as inactive; u = inconclusive.
Compound	miR-21 FLuc
CC1CCN(S(=O)(=O)c2cn(CC(=O)Nc3ccc(F)c(Cl)c3)c(=O)c3ccccc23)CC1	30%
Cc1ccc(C(=O)NC2(C(F)(F)F)C(=O)Nc3c2c(=O)[nH]c(=O)n3CCc2ccccc2)cc1 (stereo unspecified)	-2%
COc1ccc(C2c3c(n(C)c4ccccc34)C(=O)N2CC(=O)Nc2cccc(F)c2)cc1 (stereo unspecified)	22%
COc1cc2[nH]c(=O)n(CCCC(=O)NCc3ccccc3)c(=O)c2cc1OC	-6%
Cc1ccccc1CNC(=O)CSc1nnc(C)c2c(C)n(-c3ccccc3)nc12	0%
COc1ccc(S(=O)(=O)N2CCN(Cc3nc4ccc(C)cc4o3)CC2)cc1Cl	0%
Cc1c(-c2nc(-c3ccc4c(c3)OCO4)no2)nnn1-c1ccc(C(C)C)cc1	-4%
COCc1cc(C)nc2sc3c(c12)NC(c1ccc(O)cc1)N(c1ccc(OC)cc1)C3=O (stereo unspecified)	-4%
COc1ccc(Cn2c(=O)c3ccccc3n3c(-c4ccc(C)cc4)nnc23)cc1	-1%
Cc1cccc(CN2C(=O)c3ccccc3S(=O)(=O)c3ccc(C(=O)OCC4CCCO4)cc32)c1 (stereo unspecified)	-3%
CCOC(=O)c1c(C)[nH]c(C)c1S(=O)(=O)NCC(=O)Nc1cccc(C#N)c1	-4%
CCC(CC)C(=O)Nc1cc(-c2cccc(C)c2)nn1-c1ccccc1	6%
COc1ccc(NC(=O)/C(C#N)=C/c2ccc(OCc3cc(=O)n4nc(C)sc4n3)cc2)cc1	-3%
Cc1ccc(C(=O)NCCSc2c[nH]c3ccccc23)cc1C	-2%
Cc1ccc(NC(=O)c2c(C)oc3ncn(C)c(=O)c23)cc1F	4%
COc1ccccc1NC(=O)C1=C(C)Nc2nc(SCc3cccc(F)c3)nn2C1c1ccc(C(=O)O)cc1 (stereo unspecified)	0%
CCC(=O)Nc1cccc(-c2cn3c(C)csc3n2)c1	-23%
COc1cccc(-c2nc(CS(=O)(=O)CC(=O)NCc3cccc(Cl)c3)c(C)o2)c1	2%
COc1ccc(-n2nnnc2C2CCN(S(=O)(=O)c3cc(Cl)ccc3OC)CC2)cc1	u
CN(C)S(=O)(=O)N(CC(=O)NCCSCc1ccccc1Cl)c1ccccc1	19%
COc1ccc(C)cc1NC(=O)Cn1c(=O)oc2cc(S(=O)(=O)N3CCCCC3)ccc21	-2%
COc1ccc(NS(=O)(=O)c2ccc3c(c2)CCCN3C(=O)C2CCC2)cc1OC	29%
CCc1ccc(NC(=O)CNC(=O)Cn2c(C)cc3ccccc3c2=O)cc1	8%
CCOc1ccc(C2C(C(N)=O)=C(C)Nc3nc(-c4ccc(OC)cc4)nn32)cc1 (stereo unspecified)	-8%
CC(C)c1ccc(CN(Cc2ccco2)c2cnc(S(C)(=O)=O)nc2C(=O)Nc2ccc(F)cc2)cc1	15%
COc1ccc(CNC(=O)c2cc(-c3ccc(Br)s3)nc3ccccc23)c(OC)c1	-1%
COc1ccc(-c2nc3sc(CCNC(=O)c4ccc(Br)o4)c(C)n3n2)cc1	-21%
Cc1c(Cl)cccc1NC(=O)CSc1ncnc2c1sc1ccccc12	0%
Cc1nc2ccccc2n1CCc1nc2c3ccccc3nc(SCc3ccc(F)cc3)n2n1	8%
CCCCC(=O)Nc1cc2nn(-c3ccc(OCC)cc3)nc2cc1C	-13%
COc1ccc(C)cc1NC(=O)c1ccc2nc(Cc3ccccc3)oc2c1	u
COc1cc(NC(=O)CSc2nc(C)c(C(=O)Nc3ccccc3)c(-c3ccc(OC)c(OC)c3)c2C#N)c(OC)cc1Cl	-2%
CSCCC(NS(=O)(=O)c1ccc2c(c1)oc(=O)n2C)C(=O)N1CCN(c2cccc(Cl)c2)CC1 (stereo unspecified)	4%
COc1ccc(N2CCN(C(=O)Cn3ncc4c3-c3cc(C)ccc3OC4)CC2)cc1	-1%
Cc1nn(-c2ccc(N3CCOCC3)nn2)c(C)c1CCC(=O)Nc1ccc(F)cc1F	-3%
COc1ccc(CCNC(=O)CSc2nc3ccccc3nc2Cc2ccc(Cl)cc2)cc1OC	-9%
COc1ccc(CNCCC(c2ccc3c(c2)OCO3)c2ccccc2OC)cc1 (stereo unspecified)	14%
Cc1cc(NC(=O)c2ccc(F)cc2)ccc1-c1cc2ccccc2oc1=O	-11%
CCc1ccc(NC(=O)CSc2nccn2-c2ccc(OC)cc2)cc1	u
O=C(CCc1nc(-c2cccs2)no1)Nc1ccccc1[N+](=O)[O-]	-17%

# Part of the list above in order of SMILES length, rising:
Compound	miR-21 FLuc
Cc1cc(NC(=O)c2ccc(F)cc2)ccc1-c1cc2ccccc2oc1=O	-11%
COc1ccc(N2CCN(C(=O)Cn3ncc4c3-c3cc(C)ccc3OC4)CC2)cc1	-1%
CSCCC(NS(=O)(=O)c1ccc2c(c1)oc(=O)n2C)C(=O)N1CCN(c2cccc(Cl)c2)CC1 (stereo unspecified)	4%

# Later entries:
Compound	miR-21 FLuc
CC1CN(C(=O)CCC(=O)NCc2ccc(F)cc2)c2cc(Cl)ccc2O1 (stereo unspecified)	9%
CCN1CCN(c2ncc3c(n2)CCN(Cc2cccc(F)c2F)C3)CC1	0%
O=C(CSc1ncc2c(n1)-c1ccccc1N(Cc1ccccc1)S2(=O)=O)Nc1ccccc1	5%
CCOc1cccc(C2c3[nH]c4ccccc4c3CCN2C(=O)CCc2ccccc2)c1 (stereo unspecified)	9%
CC(=O)c1cccc(NC(=O)c2ccc3nc(Cc4ccccc4)oc3c2)c1	21%
CCOc1ccccc1NC(=O)C1=C(C)Nc2ncnn2C1c1ccc(C)o1 (stereo unspecified)	-11%
CCC(Sc1nc2ccccc2c2nc(CCc3c(C)n[nH]c3C)nn12)C(=O)Nc1ccc(F)cc1 (stereo unspecified)	-1%
CCOC(=O)c1ccc(NS(=O)(=O)c2ccc(-c3cc(C)no3)cc2)cc1	-1%

# 3 entries from above, arranged by the value under miR-21 FLuc, falling.
Compound	miR-21 FLuc
CCOc1cccc(C2c3[nH]c4ccccc4c3CCN2C(=O)CCc2ccccc2)c1 (stereo unspecified)	9%
O=C(CSc1ncc2c(n1)-c1ccccc1N(Cc1ccccc1)S2(=O)=O)Nc1ccccc1	5%
CCOC(=O)c1ccc(NS(=O)(=O)c2ccc(-c3cc(C)no3)cc2)cc1	-1%

# The listing continues:
Compound	miR-21 FLuc
Cc1ccc(-c2nnc(Nc3ccc(O)cc3)c3ccccc23)cc1S(=O)(=O)NCC1CCCO1 (stereo unspecified)	16%
COc1cc(NC(=O)CSc2ccc(-c3sc(C)nc3C)nn2)cc(OC)c1	12%
CCOc1ccc(/C=C/c2nc(C#N)c(N3CCCCC3)o2)cc1	-1%
CCN(CC)S(=O)(=O)c1ccc2c(c1)N(CC(=O)Nc1ccc(C)cc1C)C(=O)C1CCCN21 (stereo unspecified)	4%
CCOc1ccc(-c2cc3nc(C4CCN(C(=O)OC(C)(C)C)CC4)c(C(=O)Nc4ccc(C(=O)OC)cc4)cn3n2)cc1	-1%
COc1ccc(CCNC(=O)CSc2cc(=O)n(C)c3ccccc23)cc1OC	-12%
CCc1ccc(-n2nc3cc(C)c(NC(=O)c4cc(Cl)ccc4OC)cc3n2)cc1	-28%
CCCSc1ncc(Cl)c(C(=O)N(Cc2cccc(Cl)c2)C2CCS(=O)(=O)C2)n1 (stereo unspecified)	1%
CCC(=O)N1CCc2cc(S(=O)(=O)NC(CC(C)C)C(=O)Nc3cc(C)ccc3OC)ccc21 (stereo unspecified)	-2%
CC(=O)Nc1nonc1-c1nnc(SCc2ccc(F)cc2Cl)n1C	-21%
Cc1ccc(C)n1-c1nnc(N2CCCC(C(=O)NCc3ccccc3)C2)s1 (stereo unspecified)	-1%
Cc1cccc(NC(=O)N2CC=C(c3c[nH]c4ccccc34)CC2)c1C	-2%
CCN(C(=O)CSc1ncc(S(=O)(=O)c2ccc(C)c(Cl)c2)c(=O)[nH]1)c1cccc(C)c1	-1%
CCc1ccc(NCc2cc3cc4c(cc3n(CC(=O)Nc3ccc(C)cc3)c2=O)OCO4)cc1	-6%
Cc1ccc(C)n1-c1nnc(N2CCCC(C(=O)Nc3ccccc3Br)C2)s1 (stereo unspecified)	17%
COc1ccc(-n2ccnc(NCc3ccc(Cl)cc3)c2=O)cc1	12%
Cc1ccccc1NC(=O)N1CCC(CN2CCCC2)CC1	-1%
COc1ccc(CNc2oc(-c3ccc(COc4ccc(OC)cc4)o3)nc2C#N)cc1	25%
CCOC(=O)c1c(-c2ccc(C)cc2C)csc1NC(=O)c1ccccc1Cl	-6%
CCOc1ccc(-c2cc(CCCC(=O)NCCc3ccc(OC)c(OC)c3)no2)cc1	u
Cc1ccc(SCc2nc(-c3ccc(C(=O)NCc4ccc(Cl)cc4)cc3)oc2C)cc1	0%
CCN(CC)S(=O)(=O)c1ccc(C(=O)N2CC(=O)Nc3ccc(F)cc3C2c2ccccc2)cc1 (stereo unspecified)	5%
COc1ccccc1N(C)C(=O)Cn1c(=O)oc2cc(S(=O)(=O)N3CCCC3)ccc21	-6%
COc1ccc(-c2nc3c(C#N)c[nH]n3c2NC2CCCCC2)c(OC)c1	22%
CCOc1ccc(NC(=O)NCc2c(-n3cccc3)sc3c2CCCC3)cc1	-2%
Cc1cc(OCCCSc2nc(-c3ccc(C(C)(C)C)cc3)nc3cc(=O)[nH]n23)ccc1Cl	-1%
Cc1ccc(NC(=O)c2ncn(-c3ccccc3)n2)cc1Cl	-60%
CC(C)(C)C(=O)Nc1c(C(=O)N2CCN(c3ccc(F)cc3)CC2)oc2ccccc12	-1%
COc1ccc(OC)c(S(=O)(=O)N2CCN(Cc3nc4ccc(C)cc4o3)CC2)c1	-4%
CCn1c(C(=O)NCCc2ccc(OC)c(OC)c2)cc2sc(Cl)cc21	13%
CCC(Oc1ccccc1F)C(=O)Nc1cc(-c2ccccc2)no1 (stereo unspecified)	-13%
COC(=O)c1ccc(NC(=O)CN(Cc2ccccc2)S(=O)(=O)c2ccc(C)cc2)cc1	10%
COc1ccc(C)cc1NC(=O)c1ccc2c(c1)nnn2C1CCCC1	3%
Cc1cccc(N2CCN(C(=O)CN3C(=O)COc4ccc(S(=O)(=O)N5CCC(C)CC5)cc43)CC2)c1C	-4%
Cc1ccc2c(c1)c1c(c(=O)n(Cc3ccccc3)c(=O)n1CC(=O)NCc1ccccc1Cl)n2C	5%
Cc1nn(-c2ccccc2)c(OC(=O)C(C)(C)C)c1Sc1ccccc1	7%
CCOc1cc(C2Nc3ccccc3-c3nnc(SCc4ccccc4)nc3O2)ccc1OC (stereo unspecified)	-15%
COc1ccc(OC)c(CNS(=O)(=O)c2ccc3c(c2)oc(=O)n3C)c1	-1%
CCc1cccc(NC(=O)CSc2nccn2C)c1	-47%
CCOc1ccccc1N(CC)C(=O)c1cc2c(=O)n(CC)c3ccccc3c2s1	u

# Of the compounds above, 6 have a furan ring, fused or not.
Compound	miR-21 FLuc
Cc1ccc(NC(=O)c2c(C)oc3ncn(C)c(=O)c23)cc1F	4%
CC(C)c1ccc(CN(Cc2ccco2)c2cnc(S(C)(=O)=O)nc2C(=O)Nc2ccc(F)cc2)cc1	15%
COc1ccc(-c2nc3sc(CCNC(=O)c4ccc(Br)o4)c(C)n3n2)cc1	-21%
CCOc1ccccc1NC(=O)C1=C(C)Nc2ncnn2C1c1ccc(C)o1 (stereo unspecified)	-11%
COc1ccc(CNc2oc(-c3ccc(COc4ccc(OC)cc4)o3)nc2C#N)cc1	25%
CC(C)(C)C(=O)Nc1c(C(=O)N2CCN(c3ccc(F)cc3)CC2)oc2ccccc12	-1%

# Further structures.
Compound	miR-21 FLuc
Cc1ccc(Cl)cc1NC(=O)N1CCC(CN2CCCCCC2)CC1	-5%
Cc1c(Cl)cccc1NC(=O)C1CCCN(C(=O)c2cnn(-c3ccccc3)c2-n2cccc2)C1 (stereo unspecified)	28%
CCOC(=O)Cc1ccc(NC(=O)Nc2nnc(N3CCCCC3C)s2)cc1 (stereo unspecified)	u
Cc1cc2oc(=O)c(CC(=O)NCCc3ccccc3)c(C)c2c2occ(C(C)(C)C)c12	12%
COc1cc(OC)cc(C(=O)Oc2c(Sc3ccccc3)c(C)nn2C(C)(C)C)c1	19%
CC(=O)c1cc(-c2ccc(F)cc2)n(CCC(=O)Nc2nc3c(C)cccc3s2)c1C	-1%
COc1ccc(NC(=O)Cn2c(=O)n(-c3ccc(Cl)cc3)c(=O)c3c(C)c(C(=O)N(C)C)sc32)cc1Cl	5%
CCn1c(=O)c2cc(C(=O)Nc3cc(C)c(Cl)cc3OC)sc2c2ccccc21	0%
COc1cccc(CNc2ncnc3onc(C)c23)c1	21%
CCc1cccc(C)c1NC(=O)CN1CCCN(Cc2ccccc2Cl)S1(=O)=O	-2%
Cc1cccc(OCC(=O)Nc2ccc3nc(SCc4ccccc4)sc3c2)c1	-11%
CCc1ccc(CNC(=O)c2nn(-c3ccc(C)cc3)c(=O)c3c2c2ccccc2n3C)cc1	-1%
Cc1cccc(CNC(=O)CN2C(=O)CSc3c2c(C)nn3-c2ccccc2)c1	0%
CCOC(=O)C1=C(CN(C)Cc2ccccc2)NC(=O)NC1c1ccc(OC)cc1 (stereo unspecified)	6%
COc1ccc2c(c1)c(=O)c(S(=O)(=O)c1ccc(F)cc1)cn2CC(=O)Nc1ccc(C)cc1C	10%
CCOC(=O)c1cc(C)n(CC2CCC(C(=O)Nc3ccc(C(=O)OC)cc3)CC2)c1C (stereo unspecified)	12%
FC(F)(F)c1cccc(-c2nnn3c2nc(NC2CCCCC2)c2ccccc23)c1	10%
COc1cc(NS(=O)(=O)c2ccc(NC(=O)c3ccc(OC)c(Br)c3)cc2)nc(OC)n1	-17%

# Bioassay records (PubChem)

# The list is partial, so the mix of outcomes need not match the whole.
